Compound activity deposited in PubChem by National Center for Advancing Translational Sciences (NCATS).
Menin MLL FP FL: qHTS Assay for Inhibitors Targeting the Menin-MLL Interaction in MLL Related Leukemias: Competition With Fluorescein Labeled MLL-derived Peptide; Fluorescence polarization, fluorescein-MLL peptide displacement from menin; FP activity change, % at 61.4 µM; 290,000 tested, under 10 active; AID 1766, 2009; inconclusive = falling polarisation curve, or a change in total fluorescence; inactive = total fluorescence flat and polarisation flat or rising; no compound was filed as active; the % refers to the polarisation; negative = inhibition;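 also: % of control where 0% means no effect; inhibitors lower the polarisation; unlabelled MLL peptide was the positive control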
gsp ag: qHTS for Agonist of gsp, the Etiologic Mutation Responsible for Fibrous Dysplasia/McCune-Albright Syndrome: qHTS; 0.13% of 340,000 active; gsp mutant cells, cAMP HTRF, 30 min; control for the full effect not named in the record; Potency, µM (doses to about 76.9 µM), inactives show top-dose activation (cAMP increase), usual class: activators; active = well fitted activation curve with a large enough effect; inconclusive = small, poorly fitted or top-dose-only effect, or another doubt; inactive = no such curve, though single readings can be large or run the other way; cell line not stated here;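 also: phosphodiesterase inhibitor Ro 20-1724 added with compounds to block cAMP breakdown; potency is read from the fitted curve at half-maximal effect; nearly all actives have a fitted effect of over 60% in size; about a fifth of the inactives were tested at one dose only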
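Cells in DMEM/10% FBS with G418 were pretreated with compounds in DMSO plus […] (300 uM stock) for 30 min at 37C. cAMP was measured by HTRF (cAMP-d2 plus anti-cAMP antibody-K) after 30 min at room temperature.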
Sfp PPTase inh: qHTS Assay for Inhibitors of Bacillus subtilis Sfp phosphopantetheinyl transferase (PPTase); 4'-phosphopantetheinyl transferase ffp (Bacillus subtilis), Q9F4F7; Biochemical Sfp PPTase activity, qHTS; Potency, µM, for inactives: max response, negative = inhibition, most hits filed as inhibitors; 3.5% of 310,000 active; AID 1490, 2009; active = well fitted inhibition curve with a large enough effect; inconclusive = small, poorly fitted or top-dose-only effect, or another doubt; inactive = no such curve, though single readings can be large or run the other way;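 also: the enzyme is Sfp with the accession as filed and its product quenches rhodamine fluorescence; potency is read from the fitted curve at half-maximal effect; 0% = enzyme reaction without inhibitor and -100% = no enzyme wells; top concentration of the series not given in the record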
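Step 1, compound plus 15 nM Sfp-PPTase, 15 min, room temperature. Step 2, add rhodamine-CoA (5 uM) and BHQ-2-YbbR (12.5 uM). Step 3, read 525/598 nm fluorescence at 0 and 30 min.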
gsp antagonist: qHTS for Antagonists of gsp, the Etiologic Mutation Responsible for Fibrous Dysplasia/McCune-Albright Syndrome: qHTS; gsp-mutant cells, cAMP HTRF, 30 min; control for the full effect not named in the record; 0.4% of 340,000 active; Potency, µM (highest dose often 76.9 µM), for inactives: top-dose activity change, negative = inhibition, most hits filed as inhibitors; active = falling curve of any shape with a large fitted effect; inconclusive = falling curve, mostly with a smaller effect; inactive = flat or rising curve; cell line not stated here;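 also: intracellular cAMP measured with PDE inhibitor Ro 20-1724 present during compound exposure; potency is read from the fitted curve at half-maximal effect; % is scaled to controls: 0 for no effect and ±100 for the full control effect; nearly all actives have a fitted effect of over 65% in size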
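Measurement of cellular cAMP by homogeneous time-resolved fluorescence following a 30 min compound exposure at 37C. The PDE inhibitor […] was present throughout; the assay buffer was DPBS with 0.05% BSA and 0.005% Tween 20.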
TRPV1 PAM: HTS Assay for Compounds that Act as Potentiators of the Vanilloid Receptor 1 | Transient receptor potential cation channel subfamily V member 1 (Homo sapiens), Q8NER1 | 0.02% of 320,000 active | potentiation, % at 8.33 µM | TRPV1-expressing cells, Fluo-8 calcium influx, capsaicin EC20 potentiation; host cell line not named in the record; control for the full effect not named in the record; active means potentiation above 80%; inconclusive means 30% to 80%; inactive means below 30%; also: 0% is about no effect
Target sequence (Q8NER1 whole entry, looked up): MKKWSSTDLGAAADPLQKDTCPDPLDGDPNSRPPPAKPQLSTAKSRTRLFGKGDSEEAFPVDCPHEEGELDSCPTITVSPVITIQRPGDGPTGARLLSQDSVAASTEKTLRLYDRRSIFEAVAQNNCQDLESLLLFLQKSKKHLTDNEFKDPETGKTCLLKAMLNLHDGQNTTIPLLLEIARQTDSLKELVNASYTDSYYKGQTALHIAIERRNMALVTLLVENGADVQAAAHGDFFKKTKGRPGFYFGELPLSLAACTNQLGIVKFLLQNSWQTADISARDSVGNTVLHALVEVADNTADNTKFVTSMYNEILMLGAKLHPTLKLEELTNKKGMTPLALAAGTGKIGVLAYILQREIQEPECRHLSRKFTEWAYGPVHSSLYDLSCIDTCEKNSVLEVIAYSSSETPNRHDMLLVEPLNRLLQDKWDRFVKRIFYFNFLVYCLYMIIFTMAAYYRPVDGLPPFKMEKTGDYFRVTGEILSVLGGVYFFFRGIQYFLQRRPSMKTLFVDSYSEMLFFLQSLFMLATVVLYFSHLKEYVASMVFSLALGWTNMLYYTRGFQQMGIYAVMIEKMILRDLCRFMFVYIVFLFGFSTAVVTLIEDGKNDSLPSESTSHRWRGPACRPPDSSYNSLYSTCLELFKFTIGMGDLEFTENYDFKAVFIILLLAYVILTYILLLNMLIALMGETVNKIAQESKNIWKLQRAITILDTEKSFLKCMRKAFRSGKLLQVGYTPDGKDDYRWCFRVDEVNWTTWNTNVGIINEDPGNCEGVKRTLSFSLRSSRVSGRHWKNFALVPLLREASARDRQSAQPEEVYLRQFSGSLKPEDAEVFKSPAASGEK
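TRPV1-expressing cells were cultured overnight at 35.5C and loaded with Fluo-8 calcium dye for 40 to 90 min at room temperature. After a 10 s baseline, compound was added and calcium influx was read kinetically for 3 min (ex 480/em 520 nm).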
ClpP mod: qHTS Assay for Activators of ClpP; purified B. subtilis ClpP, FRET peptide cleavage, 20 min; Potency, µM (titrated, usually from 57.5 µM), without a hit: at the highest dose activity change, negative = active; 1.9% of 340,000 active; active = well fitted falling curve with a large enough effect; inconclusive = small, poorly fitted or top-dose-only effect; inactive = no such curve, though single readings can be large or run the other way; also: potency is read from the fitted curve at half-maximal effect; the source files actives as falling curves though it sought activators and does not explain the sign; nearly all actives have a fitted effect of over 65% in size; many hits overshoot -100%
Target sequence (P80244 whole entry, looked up): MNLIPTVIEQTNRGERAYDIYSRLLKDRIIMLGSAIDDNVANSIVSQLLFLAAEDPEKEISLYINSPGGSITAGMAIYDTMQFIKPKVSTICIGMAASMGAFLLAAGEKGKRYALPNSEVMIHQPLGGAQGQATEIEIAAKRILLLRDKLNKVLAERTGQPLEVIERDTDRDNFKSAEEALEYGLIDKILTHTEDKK
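Purified B. subtilis ClpP, 10 microg/mL final in Tris/HCl pH8 with KCl, BSA, glycerol and Tween-20, cleaved an Abz/nitrotyrosine-quenched decapeptide. Fluorescence (ex 320, em 430) was read at 0 and 20 min at room temperature. Delta was normalized to 5.8 microM ADEP and DMSO/no-enzyme controls.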
TRPML1 inh: qHTS for Inhibitors of the Human Mucolipin Transient Receptor Potential 1 (TRPML1); Mucolipin-1 (Homo sapiens), Q9GZU1; TRPML1-inducible cells, Ca2+ dye fluorescence, FDSS; hits give low values; inhibition of EC80 agonist-evoked calcium signal; activity change, negative = inhibition, % (test concentration not listed); 0.02% of 390,000 active; in the data active means activity change below about -50%; inconclusive means about -30% to -50%; inactive means above about -30%;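 also: stimulus is agonist 54-4 at its EC80 concentration; % is scaled to controls: 0 for no effect and ±100 for the full control effect; compound concentration not given in the record; the text of the record puts the active cut at -80%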
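Tet-induced TRPML1-DL cells loaded with Ca8 no-wash calcium dye were read kinetically on FDSS. Compound addition was followed by EC80 agonist 54-4 (4 uM final); inhibition was read over 110 s.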
Active calls of the source: *; u = inconclusive; x = not tested or not shown; [ ] = another dose, or the depositor's remark.

The line under a structure holds: Menin MLL FP FL, gsp ag, Sfp PPTase inh, gsp antagonist, TRPV1 PAM, ClpP mod, TRPML1 inh
(1) Oc1ccc(-c2nccc(-c3cccs3)n2)cc1
→ 8.4, -11%, 3%, -10%, x, -0.1%, -14
(2) Cn1c(=O)c2c(-c3ccccc3)n(-c3ccccc3N)cc2n(C)c1=O
→ x, 8%, x, x, x, 4.5%, 4
(3) CCC(O)(c1ccccc1)C(CN1CCOCC1)c1ccccc1 (configuration not stated)
→ -0.5, 0%, 9%, 0%, 17, -2.2%, 40
(4) O=C(CSCc1ccc(Cl)cc1)N/N=C/c1c(Cl)cccc1Cl
→ 2.5, 21%, -22%, 0%, -7, 1.8%, 10
(5) COc1cccc2c1Oc1cc([N+](=O)[O-])cc(N(C)C(C)=O)c1C=C2
→ -0.6, -5%, -2%, 3%, -2, x, -14
(6) CCCCOC(=O)c1ccc(NC(=O)CSc2nncn2C)cc1
→ 1.8, 18%, 6%, -13%, -6, -6.1%, -25
(7) COc1ccc(C(=O)c2c[nH]c(C(=O)NCCCn3ccnc3)c2)cc1
→ 0.2, -7%[15.4 µM], 13%, 7%, -3, -0.8%, -12
(8) Cc1cc(C)nc(SCC(=O)NC2CCCCC2C)n1 (configuration not stated)
→ x, 1%[15.4 µM], x, -1%, -6, x, 15
(9) CN(C(=O)c1ccc(S(=O)(=O)N(C)C)cc1)c1ccc2ccccc2c1
→ 5.0, 4%[15.4 µM], 0%, -5%, -26, x, -1
(10) COc1ccc(C2CC3CC(c4ccccc4)N2O3)cc1 (configuration not stated)
→ -0.8, 9%, 6%, 4%, 0, -1.9%, -5
(11) COc1cccc(C(=O)NC(C)C(c2cccs2)N2CCOCC2)c1 (configuration not stated)
→ 3.7, u, 6%, 3%, 21, -1.9%, -8
(12) O=C(O)C1CCCN(S(=O)(=O)c2ccccc2)C1 (configuration not stated)
→ 0.3, -2%[15.4 µM], 10%, 1%, 4, x, 0
(13) COc1ccccc1NC(=O)N1CCN(c2ccccn2)CC1
→ 0.4, 26%, 14%, 3%, -2, 4.1%, 3
(14) CC(=O)c1sc(NC(=O)CCN2C(=O)c3ccccc3C2=O)nc1C
→ 0.7, 18%[15.4 µM], 10%, -9%, -6, -2.0%, 5
(15) CCOc1cc(-c2n[nH]c(=S)n2Cc2ccccc2)ccc1OC(F)F
→ x, 6%, x, 2%, 0, -19%, 1
(16) CSc1nnc2c3cc(F)ccc3n(Cc3ccccc3)c2n1
→ 5.4, -62%[inhibitor], -4%, -7%, 7, -2.1%, -3
(17) O=C1CS/C(=C\[N+](=O)[O-])N1c1ccccc1
→ 4.5, 9%, -5%, 5%, 2, -2.8%, 13
(18) CCOC(=O)c1csc(NC(=O)c2ccc3c(c2)OCCO3)n1
→ x, -1%[15.4 µM], 11%, -20%, 6, 0.8%, -4
(19) O=C(Nc1ccc(S(=O)(=O)N2CCCC2)cc1)c1cc(F)c(F)cc1Cl
→ x, -2%[15.4 µM], 3%, 1%, u, -1.2%, 23
(20) Cc1cc(C(=O)OCC(=O)N2CC(C)OC(C)C2)c2ccccc2n1 (configuration not stated)
→ x, -2%[15.4 µM], x, 10%, -1, -13%, -2
(21) Clc1ccc(CSc2nnc(NC3=NCCCCC3)s2)cc1
→ -1.5, -29%, 4%, 1%, 3, -2.6%, 4
(22) CCOC(=O)N1CCN(S(=O)(=O)c2ccc3c(c2)CC(C)N3C(=O)C2CC2)CC1 (configuration not stated)
→ 2.2, -2%, 7%, -11%, 1, 0.3%, 0
(23) O=c1c2ccccc2nc(SCc2cc(F)cc3c2OCOC3)n1Cc1ccco1
→ 1.4, -1%, -26%, -8%, 3, -2.9%, 5
(24) CCOC(=O)c1c(NC(=O)CNCCO)sc(C)c1C
→ 1.4, 6%, -4%, 1%, -5, -23%, 0
(25) O=C1CN(C(=O)COC(=O)c2cccnc2Cl)c2ccccc2N1
→ -3.7, -2%[15.4 µM], 19%, 2%, -4, -1.1%, 4
(26) COc1cccc(-c2noc(CCC(=O)NC3CCCCC3)n2)c1
→ 0.0, -31%[inhibitor], 8%, 4%, 4, -8.2%, 0
(27) COc1ccc(OC)c(CCNC(=O)c2ccc3c(c2)N(Cc2ccc(F)cc2)CCS3)c1
→ -0.7, 1%, 0%, u, 7, 4.0%, 34
(28) COC(=O)CCn1nnc(-c2ccc(C(C)C)cc2)n1
→ -2.0, -24%, -20%, 0%, -4, 0.2%, -5
(29) CCCCN(C(=O)C1CCCC1)C1CCS(=O)(=O)C1 (configuration not stated)
→ x, 1%[15.4 µM], x, 5%, -2, -1.3%, -5
(30) CCCc1ccc(OCc2ccc(C(=O)NCc3cccnc3)o2)c(OC)c1
→ 5.4, -19%, u, -9%, 8, 1.3%, 2
(31) O=C(COC(=O)CCc1nc2ccccc2c(=O)[nH]1)NC(=O)NC1CCCC1
→ 6.4, 3%, 1%, 3%, -2, -3.4%, 6
(32) COc1cc(NC(=O)c2cccs2)ccc1NC(=O)c1ccccc1Cl
→ 1.0, 1%[15.4 µM], 19%, -22%, 2, 14µM*, 2
(33) O=C(O)/C=C/C(=O)Nc1ccc(Cl)c(C(=O)O)c1
→ 2.0, -5%[15.4 µM], -2%, 18%, 0, 13%, -1
(34) CN(c1ccc(C(=O)N2CCCCC2)cc1)S(=O)(=O)c1cccs1
→ -0.7, 1%, 21%, -5%, -4, x, -3
(35) O=C(NC(=S)NCCc1ccccc1)c1ccccc1F
→ x, -9%, -11%, -3%, -7, -0.6%, 20
(36) CCNC(=O)N1CCC(c2nc3ccccc3s2)CC1
→ 0.0, u, 2%, 4%, -21, x, -1
(37) CC(=O)c1cccc(NC(=O)c2ccc([N+](=O)[O-])o2)c1
→ x, 15%[15.4 µM], x, 0%, x, x, 29
(38) Cc1nn(Cc2ccccc2)c(Cl)c1C(=O)OC(C)C#N (configuration not stated)
→ 0.1, 35%[15.4 µM], 2%, 11%, 7, x, 1
(39) Cc1cccc(C)c1NC1=NC(=S)N(c2ccc(C(=O)O)cc2)C12CCCCC2
→ -4.2, u, 15%, -13%, -8, -1.1%, 21
(40) CCOC(=O)CNC(=O)Cn1cnc2c(nnn2-c2ccc(F)cc2)c1=O
→ -3.6, 70%, 21%, 4%, -7, -1.1%, 4
(41) CCOC(=O)c1sc(C)c(C(=O)NCCCN2CCOCC2)c1N
→ -1.8, -34%[inhibitor], 12%, 18%, 8, u, 7
(42) CCOc1ccccc1NC(=O)N1CCCC1C(=O)Nc1nnc(CC)s1 (configuration not stated)
→ 7.6, -8%, 14%, 0%, 9, -4.7%, 6
(43) CCOc1ccc2nc(NC(=O)C3CCCN(S(=O)(=O)c4cccc5nonc45)C3)sc2c1 (configuration not stated)
→ 5.6, -3%, 7%, -11%, 8, 0.4%, -10
(44) OCCN1CCN(CCO)C1=S
→ x, -10%, x, 17%, x, x, 21
(45) COc1cccc(NC2=NCC(=O)N2Cc2cccs2)c1
→ 1.8, -25%, -9%, -1%, -3, -0.2%, 9
(46) CC[C@]12c3[nH]c4ccc(Cl)cc4c3CCN1C(=O)[C@@H](CC(=O)NCCN1CCOCC1)C[C@@H]2C(=O)N1CCN(C(=O)c2ccco2)CC1
→ x, x, x, 3%, x, 2.7%, 29
(47) C=CCn1c(-c2cccc(OC)c2)nc2nc3ccccc3nc21
→ 5.5, -49%[inhibitor], 7%, 3%, 2, -1.9%, -9
(48) CCn1c(SCC(=O)N2CCOCC2)nnc1-c1ccco1
→ 3.8, 13%, 9%, 6%, 6, x, 12
(49) CCCOc1ccc(CNC(=O)C2CCN(C(=O)N3CCOc4ccccc43)CC2)cc1
→ -1.6, -55%[inhibitor], 3%, -5%, 28, -3.0%, 25
(50) CCC(=O)N1CCN(c2nc(-c3ccc(Cl)cc3)cs2)CC1
→ 3.3, 30%, u, u, -24, 0.2%, 12
(51) COc1ccc(Cn2c(/C=C/c3ccccc3)nc3ccccc32)cc1
→ -2.0, 21%, u, -9%, -2, u, 0
(52) O=C(COC(=O)CCc1ccccc1)NCc1ccc2c(c1)OCO2
→ x, 3%, x, 6%, x, x, -21
(53) Cc1ccc(NC(=O)CCC(=O)NNC(=S)Nc2ccc(F)cc2F)cc1C
→ 3.9, -51%[inhibitor], 16%, -5%, -11, 0.5%, 4
(54) CC(C)NC(=O)CC1C(=O)N(Cc2ccccc2)C(C)c2nc3ccccc3n21 (configuration not stated)
→ 3.4, 25%, 15%, 4%, -7, x, 2
(55) CCn1c(SCC(=O)NC2CCCCC2)nc2c(c1=O)SC(C)C2 (configuration not stated)
→ -3.7, -3%, 8%, 0%, 5, -1.3%, -8
(56) CCn1nc(NC(=O)c2ccccn2)c2cc3cccc(C)c3nc21
→ 3.6, -1%, -6%, -2%, -7, 32µM*, -6
(57) COc1ccc(/C=N/NC(=O)CC(=O)N/N=C/c2ccc(OC)cc2)cc1
→ 2.3, -23%, 17%, -3%, -24, x, -5
(58) COc1ccc(N(C(C)C(=O)NCc2ccco2)S(C)(=O)=O)cc1 (configuration not stated)
→ -0.4, 10%, -18%, -6%, 6, 2.7%, 1
(59) C/C(=N\NC(=O)c1nnn(-c2nonc2N)c1CSc1ccccc1)c1ccco1
→ x, 13%, -2%, 5%, -17, -0.5%, -13
(60) COC(=O)c1ccc(C(=O)OC)c(NC(=O)CSc2nnc(-c3ccccc3Cl)o2)c1
→ x, -4%, x, -1%, x, -11%, -11
(61) CCc1ccc(S(=O)(=O)Nc2cccc(-c3ccc4nnc(C)n4n3)c2)s1
→ x, 0%[15.4 µM], x, 4%, 18, 0.9%, -2
(62) O=C(O)CNC(=O)/C(=C/c1cccc([N+](=O)[O-])c1)NC(=O)c1ccco1
→ 14, 3%[15.4 µM], 16%, -1%, u, -2.2%, 6
